Sa helicase inh: blocks Staphylococcus aureus DNA helicase; inhibition, %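 (tested at about 80 µM)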; hit rate 0.05% among 120,000; purified S. aureus helicase, fluorescence unwinding assay; about half of the hits fall short of the stated cut;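 active = both duplicates at 50% or more, or one of them with a favoured structure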;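 note: 0% = mean of negative control wells and 100% = mean of positive control wells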
MgrA-DNA mod: alters Staphylococcus aureus MgrA binding to DNA; AID 602314; inhibition, %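 (about 10 µg/mL by stock and volumes)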; fluorescence polarization; hit rate 0.13% among 84,000;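 active = above 50% in either of two replicates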;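 note: 0% = protein plus DNA without compound and 100% = DNA alone without protein; higher means less MgrA bound to DNA so lower polarization; one replicate is shown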
* = called active by the depositor; / = no result given.

SMILES | Sa helicase inh | MgrA-DNA mod
Cc1oc2ccc(O)c(Cl)c2c1C(=O)O | 13 | /
CCOC(=O)c1oc2ccc(Br)cc2c1COC(=O)C1CC2CCCC(C1)C2=O (stereo not drawn) | -13 | /
CC(=O)NCCSc1nnnn1-c1ccccc1 | 5 | 0.8
COc1cc(Br)c(CNC(C)(C)CO)cc1OC | 2 | 0.0
O=[N+]([O-])c1cccc(Cl)c1Oc1ccc(-c2ccc(Oc3c(Cl)cccc3[N+](=O)[O-])cc2)cc1 | / | -3.0
Cc1ccc(NC(=S)NC(=O)CC2CC(C)(C)OC2=O)cc1 (stereo not drawn) | 6 | -0.7
CCN(Cc1ccncc1)C(=O)COc1ccccc1O | -18 | -2.0
Cc1c(C)c(C)c(CSc2ccccc2N)c(C)c1C | / | 0.1
CCc1ccc(C(=O)Nc2ccc3nc(C)ccc3c2)cc1 | / | 2.0
CCCn1nc(C(=O)NCc2ccccc2)c2ccccc2c1=O | 9 | /
O=C(NCc1ccccc1Cl)c1nsc2ccccc12 | 3 | /
CN(C)CCCNc1oc(-c2ccccc2Cl)nc1S(=O)(=O)c1ccc(F)cc1 | 7 | 0.8
O=C(Cc1cccc(F)c1)NC1CCOc2ccccc21 (stereo not drawn) | 26 | /
CCCCCc1ccc(CC(=O)O)cc1 | 4 | /
Cc1cc2nc(C(C)(C)C)cc(N)n2n1 | 15 | /
OCc1noc(-c2cccs2)n1 | / | -2.4
COc1ccccc1CNC(=O)c1ccccc1OC | / | 1.9
CCC1(C)NC(=O)N(/N=C/c2c(O)ccc3ccccc23)C1=O (stereo not drawn) | -9 | /
CC(C)(C)c1ccccc1OCC(=O)Nc1ccc(OCc2ccccc2)cc1 | 1 | 0.3
O=C1Nc2ccccc2N(O)N1c1cc(-c2ccccc2)[nH]n1 | 7 | /
Cc1[nH]n(-c2ccccc2)c(=S)c1/C=N/c1nc(-c2ccccc2)cs1 | -2 | 3.0
CCN(CC)CCOc1ccc(/C(C)=N\O)cc1 | -4 | -2.0
Nc1nc(C(F)(F)F)cc(=O)n1N | -16 | /
COc1ccc(C(=O)c2ccccc2)c(OCC(=O)NC23CC4CC(CC(C4)C2)C3)c1 | 25 | 4.1
CC(=O)N(/C=C1\SC(=S)N(CC(F)(F)F)C1=O)c1ccccc1 | 4 | /

Next part.
SMILES | Sa helicase inh | MgrA-DNA mod
COc1cc(C=NCCCN2CCN(CCCN=Cc3cc(OC)c(OC)c(OC)c3)CC2)cc(OC)c1OC | / | -1.5
CCOC(=O)c1nc(C)nc(Sc2n[nH]c(-c3ccccc3)n2)c1C | -12 | /
CN(Cc1ccccc1)c1ccc2nnc(-c3ccccc3)n2n1 | 9 | /
Cn1nnc(C(O)CNCc2ccc(Cl)cc2)n1 (stereo not drawn) | -8 | -2.2
COCCNc1nc(-c2cc(C)n(-c3ccccc3F)c2C)cs1 | -1 | /
FC(F)(F)c1cc(-c2cccs2)n2ncnc2n1 | / | -3.3
O=c1/c(=C\c2ccccc2)sc2nncn12 | -3 | -1.8
CC1(C)CC(=O)C(C=Nc2ccc(S(N)(=O)=O)cc2)=C(O)C1 | -8 | /
CNC(=O)c1n[nH]c(=O)c2ccccc12 | 3 | /
CC(C#N)(NC(=O)CSc1ncccn1)C1CC1 (stereo not drawn) | -11 | /
CCOc1ccc(-c2nc(C#N)c(N3CCCC3)o2)cc1 | 16 | -1.5
O=C(CSc1nnc(CCCN2C(=O)c3cccc4cccc(c34)C2=O)n1-c1ccccc1)N1CCCCC1 | / | -0.7
Cc1cc(C)c(S(=O)(=O)Cc2ccccc2)c(Cl)n1 | / | -3.5
O=C(O)CN1C(=O)c2ccccc2C1=O | 8 | /
O=C(NN1CCOCC1)c1ccc(Cl)cc1 | 9 | 1.0
O=C(CC1SC(=NC2CCCCC2)NC1=O)Nc1ccccc1 (stereo not drawn) | 22 | -0.5
Cc1nc2c3ccccc3n3c(CCCC(=O)NCCc4ccc(Cl)cc4)nnc3n2n1 | 5 | -5.8
CC1=C(C(N)=O)C(c2ccco2)C(C#N)=C(SCC(=O)N2CCc3ccccc3C2)N1 (stereo not drawn) | -15 | /
Cc1ccc(-c2nnc(SCC(=O)C(C)(C)C)n2N)cc1 | -15 | /
CC(Sc1ccccc1)C(=O)NCCc1ccccc1 (stereo not drawn) | 9 | 2.7
Cc1ccc(C)n1-c1ccc(C(=O)OCc2nc3ccsc3c(=O)[nH]2)cc1 | 1 | /
Cc1ccc(-c2cnnn2-c2ccc(-c3csc(C)n3)cc2)cc1 | -11 | /
COC(=O)OC1C=CS(=O)(=O)C1 (stereo not drawn) | 6 | /
CC(C)Cn1c(-c2ccccc2)c[nH]c1=S | 11 | /
CCCN(CCC)CCCn1cnc2c([nH]c3ccc(Cl)cc32)c1=O | 10 | /

One compound at a time, from the list above. Order of screens: Sa helicase inh, MgrA-DNA mod
Listed for `O=c1/c(=C\c2ccccc2)sc2nncn12` = -3, -1.8
Listed for `CC(Sc1ccccc1)C(=O)NCCc1ccccc1` (stereo not drawn) = 9, 2.7
Listed for `Cc1ccc(-c2nnc(SCC(=O)C(C)(C)C)n2N)cc1` = -15, /
Listed for `O=C(NN1CCOCC1)c1ccc(Cl)cc1` = 9, 1.0

Additional compounds follow.
SMILES | Sa helicase inh | MgrA-DNA mod
O=C1CSC(c2ccc(Br)cc2)N1c1cccc(C(F)(F)F)c1 (stereo not drawn) | / | 2.5
CC(=Nc1ccc(Br)cc1)c1sc2ccccc2c1O | / | -1.0
O=C(NCC(c1cccnc1)N1CCN(c2ccccc2)CC1)OCc1ccccc1 (stereo not drawn) | -12 | 1.1
N#Cc1c(-c2cccs2)oc(-n2cccc2)c1-c1cccs1 | -43 | /
CC(C)(C)C1CC(C(F)(F)F)n2nc(C(=O)O)cc2N1 (stereo not drawn) | 9 | -7.1
COc1ccc(NC(=O)c2cccn(OCc3ccc(F)cc3)c2=O)cc1 | 26 | /
CCOc1ccc2nc(SCC(=O)Nc3cccc(C(=O)O)c3)sc2c1 | / | 0.8
CN(CCc1ccccn1)c1nc(C(F)(F)F)nc2ccccc12 | 12 | /
Cc1nc(=O)c(-c2ccccc2)c(C)n1-c1ccccc1 | 6 | 3.8
C=CCC(CC=C)(C(=O)O)c1ccccc1 | 5 | 0.3
O=C(CN1CCN(S(=O)(=O)/C=C/c2ccccc2)CC1)NC(=O)NCc1ccccc1 | 0 | /
O=C1c2cccc3cccc(c23)N1CN1CCN(c2ccccc2)CC1 | 0 | /
CCc1cc2c(SCC(=O)c3ccc(Br)cc3)ncnc2s1 | 5 | 0.3
CC(C)N(Cc1ccccc1)S(=O)(=O)c1ccc(C#N)cc1 | -4 | /
CCOC(=O)CN1C(=O)COc2ccc(C)cc21 | -1 | /
Cc1cc(C)cc(NC(=O)CSCCn2c(C)csc2=O)c1 | -8 | /
CCOC(=O)COc1cccc2c(=O)n(CC(=O)N3CCCCC3)ccc12 | 9 | /
O=C(Nc1ccccc1Cl)C1CCN(Cc2cnn(-c3ccccc3)c2-n2cccc2)CC1 | 5 | /
COc1ccccc1N1CCN(C(c2cccs2)C(C)NS(=O)(=O)c2ccc(F)cc2)CC1 (stereo not drawn) | 13 | -0.3
O=C(CC1CCCCC1)Nc1ccccn1 | 12 | -2.0
Cc1c(O)c2ccccc2n(C)c1=O | 7 | /
Cc1ccc(S(=O)(=O)N(CC(=O)NCc2ccncc2)C2CCCCC2)cc1 | -6 | -6.2
CN(C)S(=O)(=O)c1ccc(C(=O)NNc2nc3ccccc3s2)cc1 | -9 | /
O=C(CCSc1ccccc1)c1cccs1 | / | -1.3
NC(=S)NCc1ccc(F)cc1 | / | 1.0

The listing continues:
SMILES | Sa helicase inh | MgrA-DNA mod
CCOc1ccc(-n2c(-c3ccccc3)csc2=NC(C)=O)cc1 | 2 | /
CCOc1ccc(S(=O)(=O)N(CC(=O)NCc2ccccc2)c2ccccc2)cc1 | 13 | 1.6
O=C(O)c1nccnc1C(=O)NCc1ccccc1 | 15 | -0.3
CC(C)C1C(=O)OC2c3ccccc3C(=O)N21 (stereo not drawn) | -3 | 2.9
CSc1ccccc1N=Cc1c(O)[nH]c2ccccc12 | 7 | 2.2
CC(=O)NC(CC(=O)O)C(=O)O (stereo not drawn) | / | 2.8
Cc1nc(C(F)(F)F)ccc1C(=O)NCCc1cccs1 | / | -0.6
CCOC(=O)C1C(=O)CC(O)(c2ccccc2)CC1c1ccccc1 (stereo not drawn) | 8 | /
COC(CNC(=O)Cn1ncc2c(=O)oc3ccccc3c21)OC | 12 | -0.2
O=C(CN1C(=O)C2(OCCO2)c2cc(Br)ccc21)c1ccc(Br)cc1 | 10 | /
O=C(NCCc1c[nH]c2ccccc12)c1c(Cl)nc2sccn12 | -5 | /
Cc1ccc2c(c1)c1c(n2C)/C(=N/NC(N)=S)CCC1 | 35 | /
O=C(O)c1cc2c([nH]c1=O)CCCCC2 | -5 | -4.7
Cc1sc(NC(=O)COc2cccc(F)c2)c(C#N)c1C | 13 | 19
N#C/C(C(N)=O)=C1/N=C(N)c2ccccc21 | -9 | /
S=C(Nc1ccc(CN2CCOCC2)cc1)Nc1ccccc1Cl | 7 | 0.6
Cc1ccc(C(=O)NC(C(=O)N(C)C)=C(Cl)Cl)cc1 | 25 | 0.2
N#Cc1cc2c(nc1SCC(=O)c1ccccc1)CCC2 | -5 | /
O=C(c1ccco1)N1C(=O)c2cccc3c(S(=O)(=O)N4CCCC4)ccc1c23 | 8 | -0.7
O=C(COc1ccc2ccccc2c1)Nc1c2c(nn1-c1ccc(F)cc1)CS(=O)(=O)C2 | 14 | 4.4
Nc1cc(=O)[nH]c(SCC(=O)N2CCCCC2)n1 | -3 | -0.8
Cc1nc2ccccc2c(=O)n1/N=C/c1ccccn1 | -5 | /
CC(C)OC(=O)CNc1n[nH]c(=O)[nH]c1=O | -8 | /
CCC1CN(C(=O)NCc2ccc(C)cc2)c2ccccc2S1 (stereo not drawn) | 2 | -0.4
CC1(C)CC(=O)C(CS(=O)(=O)c2ccccc2)=C(O)C1 | / | 6.8

Going on with the list.
SMILES | Sa helicase inh | MgrA-DNA mod
Cc1ccc(C)c(N(C)C(=O)c2cc3c(s2)-c2ccccc2SC3)c1 | 13 | 0.1
Cc1nn(Cc2ccccc2)c(Cl)c1/C=C/C(=O)OCc1nnc(-c2ccccc2)o1 | -14 | /
CC1=NNC(=O)C1CCC(=O)N/N=C/c1ccccc1 (stereo not drawn) | 15 | /
Nc1nccnc1C(=O)OCC(=O)NC1CC1 | -3 | /
N#Cc1cccn1Cc1ccccc1Cl | 1 | -0.8
COC(=O)c1ccc(OC)c(OC)c1Cl | / | 1.9
COCCN1Cc2cc3cc4c(cc3nc2SC1=Nc1cccc(OC)c1)OCO4 | 21 | 48
Cc1cc(C)c2c(C)nn(C3CCCCC3)c2n1 | 8 | /
COc1cc(-c2onc3ccc(Cl)cc23)ccc1O | / | -1.5
CN(C)/C=N/n1cnc2ccccc2c1=O | 1 | /
O=C(c1cccc(S(=O)(=O)Nc2ccccn2)c1)N1CCCc2ccccc21 | 1 | -4.2
COc1cc(C2C(C(=O)OCC3CCCO3)=C(C)NC3=C2C(=O)CCC3)ccc1OCc1ccccc1 (stereo not drawn) | / | -0.7
Cc1csc(NC(=O)c2ccccc2C(=O)O)c1-c1nc2ccccc2s1 | / | 11
Cc1ccc(N=Cc2ccc(Br)s2)c(C)c1 | 7 | -1.3
CCCNC(=O)c1cc(Cl)cc(Cl)c1 | / | -0.6
CCCCC1(O)C(=O)c2ccccc2N(C)C1=O (stereo not drawn) | / | -0.6
CCCn1c(=O)/c(=C2/C=Cc3ccccc3N2C)s/c1=C1\SC(=S)NC1=O | 2 | 0.8
COC(=O)CNC(=O)c1cccnc1Oc1ccccc1 | / | 0.8
NC(=O)c1c(NC(=O)COC(=O)Cc2ccsc2)sc2c1CCCC2 | 24 | /
CCOC(=O)N1CCN(C(=O)CSc2ncc(C(=O)O)n2-c2ccc(F)cc2)CC1 | -9 | /
C/C(=N\OC(=O)c1cc2ccccc2s1)c1cc[nH]c1 | / | -0.3
COc1ccc2c(c1)c1ncn(CCc3ccc(Cl)cc3)c(=O)c1n2C | 16 | 0.7
CC1=C(C(=O)Nc2cc(C)ccn2)C(c2ccc(C)cc2)C2=C(CCCC2=O)N1 (stereo not drawn) | -7 | /
CCOc1ccccc1N=C1S/C(=C\c2ccc(N(C)C)cc2)C(=O)N1CCN1CCOCC1 | -105 | /
CCOC(=O)c1ccccc1NC(=S)N(C)Cc1ccccc1 | 4 | 2.8

Quoted at random: 2 records from the list.
SMILES | Sa helicase inh | MgrA-DNA mod
O=C(NN1CCOCC1)c1ccc(Cl)cc1 | 9 | 1.0
CCOC(=O)C1C(=O)CC(O)(c2ccccc2)CC1c1ccccc1 (stereo not drawn) | 8 | /

Back to the main list, repeating the 6 entries before the break.
SMILES | Sa helicase inh | MgrA-DNA mod
CCOC(=O)N1CCN(C(=O)CSc2ncc(C(=O)O)n2-c2ccc(F)cc2)CC1 | -9 | /
C/C(=N\OC(=O)c1cc2ccccc2s1)c1cc[nH]c1 | / | -0.3
COc1ccc2c(c1)c1ncn(CCc3ccc(Cl)cc3)c(=O)c1n2C | 16 | 0.7
CC1=C(C(=O)Nc2cc(C)ccn2)C(c2ccc(C)cc2)C2=C(CCCC2=O)N1 (stereo not drawn) | -7 | /
CCOc1ccccc1N=C1S/C(=C\c2ccc(N(C)C)cc2)C(=O)N1CCN1CCOCC1 | -105 | /
CCOC(=O)c1ccccc1NC(=S)N(C)Cc1ccccc1 | 4 | 2.8
CC(C)N1CC2(c3ccccc3)CN(C(C)C)CC(c3ccccc3)(C1)C2O (stereo not drawn) | 11 | -1.7
Cc1cccc(NC(=O)CC(c2ccccc2)c2ccccc2)n1 | 11 | /
COc1ccc(NC(=O)CC2SC3=NCCN3C2=O)cc1 (stereo not drawn) | -21 | /
COc1nc(C)ccc1-c1noc(-c2ccccc2)n1 | -5 | 1.5
C/C(=N\O)c1sc(-c2ccc(Cl)cc2)nc1C | / | -4.1
O=C(Nc1ccc(SC(F)(F)F)cc1)c1ccccn1 | 1 | 1.2
CCOC(=O)Cc1csc(NC(=O)CN2C(=O)c3ccccc3C2=O)n1 | 3 | /
COc1ccc(NC(=O)CCCn2nnc3ccccc3c2=O)cc1 | -14 | 1.0

Screening data from PubChem.

Some of the compounds tested, so the mix of outcomes need not match the whole.
